# Assay outcomes deposited in PubChem by National Center for Advancing Translational Sciences (NCATS).
# gsp antagonist – antagonizes gsp, the McCune-Albright syndrome mutation. Potency, µM (series often up to 76.9 µM), inactives show at the top dose activity change, negative = inhibition, actives largely listed as inhibitors. AID 624288. gsp-mutant cells, cAMP HTRF, 30 min; control for the full effect not named in the record. 0.4% of 340,000 active; active = falling curve of any shape with a large fitted effect; inconclusive = falling curve, mostly with a smaller effect; inactive = flat or rising curve; cell line not stated here;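 note: intracellular cAMP measured with PDE inhibitor Ro 20-1724 present during compound exposure; potency is the fitted concentration of half-maximal effect; % is set by controls: 0 for no effect and ±100 for the full control effect; nearly all actives have a fitted effect of over 65% in size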
#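 HTRF cAMP measurement after 30 min RT detection following 30 min, 37C compound treatment alongside […] (added as 300 uM solution) in G418-selected cells seeded at 2000/well and grown 16–24 h.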
# Menin-MLL FL inh – displaces fluorescein MLL peptide from human menin; Fluorescence polarization, fluorescein-MLL peptide displacement from menin; FP activity change, % at 61.4 µM; 290,000 tested, under 10 active; AID 1766; inconclusive = falling polarisation curve, or a change in total fluorescence; inactive = total fluorescence flat and polarisation flat or rising; no compound was filed as active; the % refers to the polarisation; negative = inhibition;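 note: % of control where 0% means no effect; inhibitors lower the polarisation; unlabelled MLL peptide was the positive control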
# TRPML1 blocker – inhibitors of human TRPML1 channel; TRPML1-inducible cells, Ca2+ dye fluorescence, FDSS; hits give low values; inhibition of EC80 agonist-evoked calcium signal; activity change, negative = inhibition, % (test concentration not listed); 0.02% of 390,000 active; in the data active means activity change below about -50%; inconclusive means about -30% to -50%; inactive means above about -30%;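 note: stimulus is agonist 54-4 at its EC80 concentration; % is set by controls: 0 for no effect and ±100 for the full control effect; compound concentration not given in the record; the text of the record puts the active cut at -80%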
# Target sequence (Q9GZU1 whole entry, looked up): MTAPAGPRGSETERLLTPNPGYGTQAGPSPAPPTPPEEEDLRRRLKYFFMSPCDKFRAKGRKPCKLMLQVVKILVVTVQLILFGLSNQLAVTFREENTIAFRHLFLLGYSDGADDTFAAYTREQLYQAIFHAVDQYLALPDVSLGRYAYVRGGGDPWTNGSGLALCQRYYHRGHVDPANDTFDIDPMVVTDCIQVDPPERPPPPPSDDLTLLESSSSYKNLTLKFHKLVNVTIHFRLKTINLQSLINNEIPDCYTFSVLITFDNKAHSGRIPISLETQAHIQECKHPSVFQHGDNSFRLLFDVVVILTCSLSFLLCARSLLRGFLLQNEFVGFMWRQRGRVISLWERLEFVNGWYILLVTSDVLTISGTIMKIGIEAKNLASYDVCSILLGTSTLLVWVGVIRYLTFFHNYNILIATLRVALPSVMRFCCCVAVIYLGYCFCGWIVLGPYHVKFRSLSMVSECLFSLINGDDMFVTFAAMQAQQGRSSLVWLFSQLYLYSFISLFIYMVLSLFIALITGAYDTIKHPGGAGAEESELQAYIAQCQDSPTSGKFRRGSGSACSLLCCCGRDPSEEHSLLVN
#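 Calcium fluorescence in TRPML1-DL cells induced overnight with Tet: a 110 s read after compound pin addition, then a 110 s antagonist read after challenge with 54-4 at 4 uM final (EC80).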
# gsp ag – agonists of gsp mutant (McCune-Albright syndrome); gsp mutant cells, cAMP HTRF, 30 min; control for the full effect not named in the record; 0.13% of 340,000 active; AID 624287; Potency, µM (doses to about 76.9 µM), inactives show at the highest dose activation (cAMP increase), actives largely listed as activators; active = well fitted activation curve with a large enough effect; inconclusive = small, poorly fitted or top-dose-only effect, or another doubt; inactive = no such curve, though single readings can be large or run the other way; cell line not stated here;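 note: phosphodiesterase inhibitor Ro 20-1724 added with compounds to block cAMP breakdown; potency is the fitted concentration of half-maximal effect; nearly all actives have a fitted effect of over 60% in size; about a fifth of the inactives were tested at one dose only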
#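 Cells stably selected in G418 were plated at 2000/well, grown 16-24 hr, then given compounds in DMSO with the PDE inhibitor […] (300 uM solution added) for 30 min at 37C; cAMP was read by HTRF.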
# TRPV1 potentiator – human TRPV1 potentiation | TRPV1-expressing cells, Fluo-8 calcium influx, capsaicin EC20 potentiation; host cell line not named in the record; control for the full effect not named in the record | potentiation, % at 8.33 µM | Q8NER1 | 0.02% of 320,000 active; active means potentiation above 80%; inconclusive means 30% to 80%; inactive means below 30%; note: 0% is about no effect
#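 TRPV1-expressing cells were cultured overnight at 35.5C and loaded with Fluo-8 calcium dye for 40 to 90 min at room temperature. After a 10 s baseline, compound was added and calcium influx was read kinetically for 3 min (ex 480/em 520 nm).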
# Sfp inh – blocks B. subtilis Sfp PPTase activity. Q9F4F7. Biochemical Sfp PPTase activity, qHTS. Potency, µM, inactives show max response, negative = inhibition, usual class: inhibitors. 3.5% of 310,000 active; active = well fitted inhibition curve with a large enough effect; inconclusive = small, poorly fitted or top-dose-only effect, or another doubt; inactive = no such curve, though single readings can be large or run the other way;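 note: the enzyme is Sfp with the accession as filed and its product quenches rhodamine fluorescence; potency is the fitted concentration of half-maximal effect; 0% = enzyme reaction without inhibitor and -100% = no enzyme wells; top concentration of the series not given in the record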
#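 Buffer: 50 mM Hepes-Na pH 7.6, 10 mM MgCl2, 0.01% Nonidet P-40, 0.01% BSA. Enzyme 15 nM, pre-exposed to compound 15 min; substrates then added and fluorescence change tracked over 30 min.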
# ClpP mod – qHTS Assay for Activators of ClpP; ATP-dependent Clp protease proteolytic subunit (Bacillus subtilis (strain 168)), P80244; purified B. subtilis ClpP, FRET peptide cleavage, 20 min; Potency, µM (top dose mostly 57.5 µM), inactives show top-dose activity change, negative = active; 1.9% of 340,000 active; active = well fitted falling curve with a large enough effect; inconclusive = small, poorly fitted or top-dose-only effect; inactive = no such curve, though single readings can be large or run the other way; note: potency is the fitted concentration of half-maximal effect; the source files actives as falling curves though it sought activators and does not explain the sign; nearly all actives have a fitted effect of over 65% in size; many hits overshoot -100%
# Target sequence (P80244 whole entry, looked up): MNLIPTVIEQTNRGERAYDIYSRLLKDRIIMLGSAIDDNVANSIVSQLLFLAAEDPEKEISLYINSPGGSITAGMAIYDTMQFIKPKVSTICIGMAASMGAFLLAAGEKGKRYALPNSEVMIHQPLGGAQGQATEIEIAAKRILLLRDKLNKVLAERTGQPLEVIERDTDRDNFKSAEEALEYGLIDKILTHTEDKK
#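 Purified B. subtilis ClpP, 10 microg/mL final in Tris/HCl pH8 with KCl, BSA, glycerol and Tween-20, cleaved an Abz/nitrotyrosine-quenched decapeptide. Fluorescence (ex 320, em 430) was read at 0 and 20 min at room temperature. Delta was normalized to 5.8 microM ADEP and DMSO/no-enzyme controls.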
# Numbers without * were called inactive; ? = inconclusive; nt = not tested or not shown; & = joins results of further samples; [ ] = another dose, or the depositor's remark.
Molecule | gsp antagonist | Menin-MLL FL inh | TRPML1 blocker | gsp ag | TRPV1 potentiator | Sfp inh | ClpP mod
O=C(CSc1ccc(Br)cc1)NCC1CCCO1 (stereo not drawn) | -10.8% | -2.4 | -8.9 | ? | -9.3 | 10.0% | 0.1%
CN1[C@@H]2CCC[C@H]1CC(NC(=O)c1nn(C)c3ccccc13)C2 (stereo partly drawn) | -0.5% | nt | 1.4 | nt | -18.0 | nt | 4.2%
O=C(CCN1C(=O)C2C3C=CC(C3)C2C1=O)N1CCN(c2ccc(F)cc2)CC1 (stereo not drawn) | 4.7%[15.4 µM] | 2.1 | -3.6 | ? | -10.9 | 16.6% | 1.9%
CC(=O)NC1CC2CCCC(C1)N2C(=O)Nc1ccccc1C (stereo not drawn) | 5.7% | nt | -10.9 | 3.2% | nt | nt | -2.3%
COc1ccc(S(=O)(=O)N(C)CC(=O)NCc2ccco2)cc1OC | -0.8% | 3.1 | 10.4 | -5.5% | 3.9 | -6.1% | nt
CC(=O)N1c2ccc(S(=O)(=O)N3CCCC(C(=O)N4CCC(C)CC4)C3)cc2CC1C (stereo not drawn) | -8.2% | -4.4 | -11.3 | 0.2% | -16.4 | 15.8% | -4.1%
COc1ccc(C2CC(c3ccccc3)n3nnnc3N2)cc1 (stereo not drawn) | -0.6% | 0.8 | -13.0 | -18.4% | -2.3 | -3.7% | -4.2%
CCN(CC)C(=O)C(C)N(C#N)c1nc(C)cc(C)n1 (stereo not drawn) | 2.7% | 5.8 | -4.7 | 23.6%[15.4 µM] | -8.9 | 9.7% | -1.9%
Nc1nc(CN2CCN(c3ccccn3)CC2)nc(Nc2ccc(F)cc2)n1 | -3.9% | 0.6 | 0.9 | 6.3% | 2.7 | -3.9% | -13.2%
CCOc1ccc(C(N)=O)cc1OC | 12.7% | 1.9 | 8.1 | -1.3% | 8.6 | 17.9% | 28.2µM*
O=S(=O)(NCc1c(Cl)cccc1Oc1ccccc1)c1ccc(F)cc1 | -11.9% | -1.7 | 29.5 | 32.2% | -8.8 | -5.5% | 4.2%
Cc1c(C)c2cc(Cl)c(OCC(=O)NCCCn3ccnc3)cc2oc1=O | 0.2% | nt | 15.0 | -13.0% | 14.2 | 19.8% | 4.2%
COc1ccc(N2CCN(CCCNS(=O)(=O)c3ccc4c(c3)oc(=O)n4C)CC2)cc1 | -13.3% | 3.4 | 0.6 | ? | nt | -3.5% | -2.7%
CN1C(=O)c2ccc(C(=O)NCc3ccco3)cc2C1=O | -8.8% | nt | 21.2 | -15.9% | -32.4 | 12.2% | 0.7%
COC(=O)C1=CN(c2ccc(F)cc2)C=C(C(=O)OC)C1c1ccc([N+](=O)[O-])cc1 | 6.4% | 3.4 | 31.0 | -7.6% | -4.3 | -3.8% | -1.8%
COc1ccc(N(Cc2ccccc2)C(=O)c2ccccc2[N+](=O)[O-])cc1 | ? | -2.6 | -6.1 | -41.7%[inhibitor] | -4.8 | 3.6% | -0.7%
c1cncc(-c2nc3ccccn3c2Nc2ccc3c(c2)OCCO3)c1 | -26.3% | 4.6 | 18.6 | ? | 18.3 | 14.2% | -9.9%
CCC(C)(C)NC(=O)C(c1ccco1)N(C(=O)CNC(=O)c1cccs1)c1cccnc1 (stereo not drawn) | -1.3% | 5.6 | 2.4 | 14.9% | -4.2 | 19.9% | 2.7%
CCCCn1c(N)c(N(CC(C)C)C(=O)CN2C(=O)NC3(CC(C)CC(C)(C)C3)C2=O)c(=O)[nH]c1=O (stereo not drawn) | 13.6% | nt | -6.1 | -3.3% | 4.8 | nt | -13.3%
COc1cccc(C(=O)NC(C)CCc2ccccc2)c1 (stereo not drawn) | 2.2% | -3.2 | 1.2 | 7.1% | -5.6 | 2.2% | -0.8%
CN(C)c1ccc2c3c(cccc13)C(=O)N(c1ccccc1)C2=O | nt | ? | nt | nt | 2.4 | 11.1% | nt
O=C(CCCN1C(=O)/C(=C\c2ccccc2)SC1=S)Nc1ccc(O)cc1 | -30.0% | 1.5 | 16.9 | -11.3%[15.4 µM] | -13.0 | -0.9% | nt
CC1CCCCN1C(=O)CSc1ccc(-c2ccc(F)cc2)nn1 (stereo not drawn) | -12.2% | 2.4 | -1.4 | 8.6% | 4.4 | -4.2% | 0.0%
COc1ccc2ccccc2c1/C=N\NC(=O)c1cccnc1 | -10.6% | nt | 3.7 | -43.0%[15.4 µM] | nt | nt | nt
COC(=O)CNC(c1ccccc1)c1cc(C)ccc1NC(=O)c1cccc(Cl)c1 (stereo not drawn) | -14.1% | 0.1 | 41.7 | 5.6% | -7.3 | -12.9% | -0.3%
CCOc1ccc(-c2nnc3sc(COc4ccc(Cl)cc4)nn23)cc1 | 6.1% | 3.2 | 15.2 | 6.0% | -16.8 | ? | -1.7%
CC(C)CN(CC(C)C)c1nn[nH]n1 | 2.8% | nt | 1.2 | 3.4% | nt | nt | nt
Cc1ccc(CC2SC(=O)NC2=O)cc1Cl (stereo not drawn) | -15.0% | 6.8 | 2.0 | -0.8% | -6.1 | -1.4% | 0.4%
N#CCSc1nc2scc(-c3cccs3)c2c(=O)n1CCc1ccccc1 | -19.0% | 4.7 | -14.6 | 1.2% | 5.8 | 17.3% | -4.9%
O=C(NCc1nnc(SCc2ccc(F)cc2)n1-c1ccc(F)cc1)C12CC3CC(CC(C3)C1)C2 | -5.9% | 4.5 | -11.1 | -4.9% | -6.0 | -13.7% | 0.8%

# (more compounds)
# Order of values – gsp antagonist | Menin-MLL FL inh | TRPML1 blocker | gsp ag | TRPV1 potentiator | Sfp inh | ClpP mod
O=C(O)CCCNC(=O)C(c1ccccc1)c1ccccc1
→ 18.3%&5.3% | 3.6&3.5 | 4.9&-12.6 | -26.6%&13.1%[15.4 µM] | ? | -7.1%&5.9% | 0.9%&-1.6%
Cc1noc(C)c1S(=O)(=O)N(C)C[C@H]1Oc2ccc(NC(=O)CCC(F)(F)F)cc2C(=O)N([C@H](C)CO)C[C@@H]1C
→ 7.8% | nt | -4.5 | nt | nt | nt | -0.3%
O=C(/C=C/c1ccccc1)Oc1cccc(C(=S)N2CCOCC2)c1
→ nt | -2.6 | 58.8 | 4.2%[15.4 µM] | -4.8 | -7.0% | nt
CCOCCCNC(=O)C(NC(=O)c1cnccn1)c1ccc(OC)cc1 (stereo not drawn)
→ 7.2% | -3.2 | 14.7 | -29.4% | 9.6 | 10.1% | -3.1%
O=C(NCCN1CCCC1)C(c1ccccc1)c1ccccc1
→ -10.5% | -0.5 | -12.0 | 7.5% | -11.5 | 17.9% | -2.1%
O=C(NCc1ccco1)C1CC(c2ccc(F)cc2)=NO1 (stereo not drawn)
→ 11.1% | 0.0 | -11.3 | 22.2%[15.4 µM] | 7.7 | 14.0% | nt
COc1ccc(S(=O)(=O)N2CCN(C(=S)Nc3ccc(S(N)(=O)=O)cc3)CC2)cc1
→ 5.7% | 0.9 | 19.1 | -25.0% | -2.7 | 8.5% | 17.8µM*
COC(=O)c1oc2ccc(Cl)cc2c1-n1cccc1
→ -13.8% | -0.5 | -0.1 | -0.2% | 6.9 | -21.0% | -1.8%
CC(=O)Nc1c2c(nn1-c1cccc(Cl)c1)CS(=O)C2 (stereo not drawn)
→ -0.4% | 0.2 | 48.3 | 5.5% | -4.7 | 18.2% | 0.7%
Cc1nc(SCC(=O)N(CC(C)C)C2CCS(=O)(=O)C2)c2c(C)c(C)sc2n1 (stereo not drawn)
→ -0.4% | nt | -13.9 | -35.2%[inhibitor] | -7.1 | nt | -0.4%
Cc1cn2c(-c3ccncc3)nnc2s1
→ 32.1% | -2.6 | -11.6 | 28.0% | -0.5 | 8.8% | -10.6%
Cc1ccc(CNC(=O)CCn2nc(-c3ccc(Cl)cc3)ccc2=O)cc1
→ -0.8% | 3.6 | -0.9 | -35.8%[inhibitor] | -0.4 | -5.9% | -2.4%
COc1cc(OC)nc(NC(=O)COC(=O)c2cccc(Cl)c2)n1
→ 1.7% | -1.4 | 4.7 | 1.5%[15.4 µM] | 2.1 | -0.7% | nt
Cc1coc2c1C(=O)C(=O)c1c-2ccc2c(C)cccc12
→ -5.3% | 2.9 | -20.9 | 27.5% | 2.4 | -4.4% | -0.4%
Cc1cc(C(=O)OCC(=O)Nc2ccccc2[N+](=O)[O-])c2ccccc2n1
→ 5.3% | 9.3 | 6.8 | -12.4% | 18.5 | -5.8% | -9.3%
CCn1cc(C(=O)NCCCOC(C)C)c(=O)c2cc(S(=O)(=O)N3CCC(C)CC3)ccc21
→ -6.5% | -4.5 | -4.3 | -0.5% | -29.9 | 13.2% | 2.5%
COC(=O)CCCC1=CC2=CC(=O)C(C)(OC(=O)c3cccs3)C(=O)C2=CN1CCc1c[nH]c2ccccc12 (stereo not drawn)
→ 2.7% | 1.3[11.7 µM] | -4.9 | nt | -21.2 | 0.3%&-7.3% | -4.2%
COc1cc2c(cc1NC(=O)CSc1cccc[n+]1[O-])oc1ccccc12
→ -17.7% | 9.3 | -1.2 | -3.9% | 7.5 | -16.2% | -0.2%
O=C(NCCCN1CCCC1=O)C1CCCO1 (stereo not drawn)
→ 8.8% | 1.5 | -16.8 | -1.0%[15.4 µM] | 1.2 | 21.8% | -4.0%
Cc1ccc(Nc2nnc(SC/C(O)=C(\C#N)c3nc4ccccc4[nH]3)s2)c(C)c1
→ -6.2% | 2.3 | 13.6 | 9.2% | ? | 8.7% | -3.3%
O=C(O)C1C2C=CC(C2)C1C(=O)NCc1cccs1 (stereo not drawn)
→ 17.8% | -1.3 | 6.8 | 3.8%[15.4 µM] | 1.6 | 23.3% | nt

# Structural class, those above with a COOH group (2)
# Order of values – gsp antagonist | Menin-MLL FL inh | TRPML1 blocker | gsp ag | TRPV1 potentiator | Sfp inh | ClpP mod
O=C(O)CCCNC(=O)C(c1ccccc1)c1ccccc1
→ 18.3%&5.3% | 3.6&3.5 | 4.9&-12.6 | -26.6%&13.1%[15.4 µM] | ? | -7.1%&5.9% | 0.9%&-1.6%
O=C(O)C1C2C=CC(C2)C1C(=O)NCc1cccs1 (stereo not drawn)
→ 17.8% | -1.3 | 6.8 | 3.8%[15.4 µM] | 1.6 | 23.3% | nt
